B2AR ag: human beta-2 adrenergic receptor agonism by FAP; P07550; Am2.2-beta2AR cells, FAP receptor internalization, flow cytometry; reference of the scale not given here; response, % (test concentration not listed); actives 0.43% (n = 340,000);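 active = response above a set limit, near 3 SD of response in nonfluorescent compounds, cut at about 42% in these data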;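 note: stock transfer was 100 nL into about 11 µL; a reference agonist was the positive control; negative values mostly stem from fluorescent compounds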
Target sequence (P07550 whole entry, looked up): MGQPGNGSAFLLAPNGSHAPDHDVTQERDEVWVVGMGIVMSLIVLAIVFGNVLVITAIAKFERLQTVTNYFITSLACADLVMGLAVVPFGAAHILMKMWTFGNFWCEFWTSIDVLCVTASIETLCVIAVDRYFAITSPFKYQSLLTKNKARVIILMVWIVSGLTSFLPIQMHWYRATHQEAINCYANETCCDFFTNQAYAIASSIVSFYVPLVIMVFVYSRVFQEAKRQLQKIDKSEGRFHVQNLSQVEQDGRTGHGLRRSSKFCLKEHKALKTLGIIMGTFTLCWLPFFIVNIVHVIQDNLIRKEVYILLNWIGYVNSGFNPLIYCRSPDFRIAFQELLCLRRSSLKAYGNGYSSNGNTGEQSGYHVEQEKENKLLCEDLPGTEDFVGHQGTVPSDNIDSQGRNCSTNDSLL
HNF4A DNA FP: change in binding of human HNF4 alpha to DNA; HNF4a-FITC DNA binding, fluorescence polarization, 1 h; actives 0.3% (n = 360,000); AID 1224865; activity change, % at 10 µM; P41235; in the data active = activity change above about 30%, passing the limit was not always enough;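 note: controls were the assay level and a saturating level of protein; the project sought stronger binding though the title names inhibitors; some compounds called inactive have numbers as strong as hits; positive values seem to mean higher polarization but the record does not say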
Ecoli growth: inhibitors of Escherichia coli growth; OD600 absorbance (test concentration not listed); actives 0.21% (n = 330,000); AID 1053175; OD600, 23 h; hits give low values;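 active = OD600 absorbance below the run mean of sample wells minus 3.6 SD, in any replicate, cut at about 0.56 in these data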;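 note: stock transfer was 300 nL into about 60 µL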
LANA-H2A inh: blocks KSHV LANA binding to histone H2A/H2B | Q9QR71 | cell-free LANA-H2A/H2B peptide, fluorescence polarization | inhibition, % (no concentration beside the values) | actives 0.6% (n = 320,000) | AID 2629; in the data active = inhibition mostly above about 10%, no sharp cut-off; inactive = mostly below about 6.7%;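 note: stock transfer was 7.5 nL into about 10 µL; 0% = median of vehicle wells and 100% = median of positive control wells; one replicate is shown; the record names a cut of 25% in any replicate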
A1 inh: inhibitors of the anti-apoptotic protein A1, read as caspase activation | MEF A1-2A-BIM cells, Caspase-Glo 3/7 luminescence, 3 h; percent of clofoctol response, vehicle zero | caspase activation, % (no concentration beside the values) | actives 0.066% (n = 330,000);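 active = over half of replicate activation scores above 10%, or exactly half above 10 with the replicate mean above 10; inconclusive = replicate mean below 10 yet half the replicates above 10; inactive = over half of replicates below 10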;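 note: wells of about 30 µL received 50 nL stock; many hits fall short of the cut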
Vif TR-FRET: HIV-1 Vif–A3G interaction blockers – biochemical, TR-FRET, GST-Vif 1-94, biotin-A3G peptide, dose response retest, primary screen (AID 1117319). TR-FRET GST-Vif / biotin-A3G peptide binding; higher % means a stronger effect; test concentration not given here; strong numbers were not always called active. inhibition, %; hits with a dose series show IC50 in µM. actives 0.57% (n = 260,000);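 active = above the screen mean plus three standard deviations and confirmed in dose response; inconclusive = results disagree or hit not tested in dose response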;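 note: Vif residues 1-94 fused to GST binding biotinylated APOBEC3G peptide 110-148; 0% = full assay without inhibitor and 100% = GST in place of GST-Vif; retest series ran down from 100 µM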
UCH37 DUB inh: inhibitors of human deubiquitinating enzyme UCH37; purified proteasome/UCH37, Ub-AMC cleavage fluorescence; actives 0.33% (n = 330,000); inhibition, % (no concentration beside the values); AID 588478;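 active = mean of two replicates above 20%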;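 note: 0% = compound-free wells with enzyme and 100% = wells lacking proteasome; stock transfer was 100 nL into about 20 µL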
Target sequence (Q9Y5K5 whole entry, looked up): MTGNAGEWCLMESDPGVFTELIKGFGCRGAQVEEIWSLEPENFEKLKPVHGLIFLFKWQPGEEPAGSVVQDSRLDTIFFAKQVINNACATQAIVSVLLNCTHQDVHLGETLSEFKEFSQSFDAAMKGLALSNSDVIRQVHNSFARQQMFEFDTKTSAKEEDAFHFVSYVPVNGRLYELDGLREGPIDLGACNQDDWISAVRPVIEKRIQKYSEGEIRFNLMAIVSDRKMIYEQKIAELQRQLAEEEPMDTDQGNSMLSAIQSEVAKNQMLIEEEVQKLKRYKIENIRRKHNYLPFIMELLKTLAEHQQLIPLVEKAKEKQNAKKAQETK
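Assay system: Proteasome-bound UCH37. Buffer or medium: pH 7.4 Tris-HCl (50 mM) with ovalbumin, ATP-MgCl2, DTT. Incubation: 30 min preincubation with enzyme, 25 min cleavage at room temperature. Measured by: fluorescence, ex 355 nm, em 460 nm. Read-out basis: percent inhibition. Control set: wells without proteasome as full block, compound-free enzyme plus substrate as uninhibited.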
An asterisk follows results filed as active; i = inactive; u = inconclusive; x = no result given.

SMILES	B2AR ag	HNF4A DNA FP	Ecoli growth	LANA-H2A inh	A1 inh	Vif TR-FRET	UCH37 DUB inh
CC(=O)c1ccc(NC(=O)c2cc(S(=O)(=O)N3CCOCC3)ccc2C)cc1	6	3.9	0.75	-1.6	-0.3	x	1.6
O=C1NC(=Nc2ccccc2Cl)S/C1=C\c1cccc([N+](=O)[O-])c1O	1	5.7	x	-2.5	-2.5	7%	x
CCOc1ccccc1N1CCN(C(=O)/C=C/c2cccc([N+](=O)[O-])c2)CC1	-5	2.2	0.69	1.4	0.5	x	0.1
O=C(NC1CCCC1)c1ccc(CSc2nc3ccncc3n2Cc2ccc(F)cc2)cc1	-20	2.1	0.77	-2.8	0.9	-11%	5.4
CCC(CC)Nc1ccc(C(CC(N)=O)NC(=O)Cc2ccc(Br)cc2)cc1[N+](=O)[O-] (stereo not given)	-7	52*	0.66	0.7	1.4	x	1.2
CO[C@H]1CC[C@@]2(C)[C@@H](CC[C@@H]3[C@@H]2CC[C@@]2(C)[C@H]3C[C@H](C(=O)N[C@@H](CCCN=C(N)N)C(=O)NCC(=O)N[C@@H](CC(=O)O)C(N)=O)O[C@]23CCCO3)C1	-2	-2.4	x	x	x	-4%	x
Cc1ccc(C)c(N2N=C(C(=O)OCC(=O)N(C)c3ccccc3)CCC2=O)c1	-5	-1.8	0.69	x	x	-5%	4.7
COc1ccc(Cn2c(C)nc3ccc([N+](=O)[O-])cc3c2=O)cc1	-1	0.2	0.67	-2.4	-0.1	x	4.3
COC(=O)c1ccc(N2CCN(C)CC2)c(NC(=O)c2cccs2)c1	-5	-0.4	0.7	0.1	-0.1	x	2.9
CCCn1cnnc1CNC(=O)C1CCC(=O)N(CCCc2ccccc2)C1 (stereo not given)	0	5.7	0.67	-2.5	-0.4	x	3.1
Cc1cc(C)n(CC(=O)NNC(=O)c2ccc(S(C)(=O)=O)cc2)n1	-1	2.9	0.69	1.1	0.1	-7%	4.2
O=C(c1ccc(COc2ccccc2Br)o1)N1N=C(C(F)F)CC1(O)C(F)F (stereo not given)	5	3.9	0.73	0.9	-0.5	-9%	2.6
CC1(C)CC(C(CC(=O)O)c2ccccc2)CCO1 (stereo not given)	-1	4.1	0.71	-2.4	2.9	3%	1.8
CCOc1ccc(NC(=O)CSc2nc3[nH]ncc3c(=O)n2-c2ccccc2OC)cc1	27	-0.9	0.7	-0.4	0.1	-3%	3.1
CCS(=O)(=O)N1CCN(c2c(Cl)cccc2[N+](=O)[O-])CC1	2	2.0	0.72	1.2	1.1	-1%	5.7
CC(C)CC[n+]1ccccc1/C=C/c1ccc(N(C)C)cc1	-231	55*	0.65	-46	-1.3	4%	12
NC(=S)NN=CCn1cc([N+](=O)[O-])c(=O)[nH]c1=O	3	-2.6	0.7	x	x	-12%	6.2
O=C(NCc1cc(C(F)(F)F)ccc1Cl)c1cccc2c1C(=O)c1ccc(N3CCCCC3)cc1S2(=O)=O	-15	73	0.69	-1.2	0.8	x	-1.1
CSCCC(NS(=O)(=O)c1ccc(C)cc1)C(=O)N1CC=C(c2ccccc2)CC1 (stereo not given)	3	-6.3	0.72	1.2	0.0	-2%	5.1
O=C(c1cccc(COCC(F)(F)C(F)F)c1)N1CCN(c2ccccc2)CC1	-6	-6.3	0.68	-5.0	-1.0	5%	0.3
CCOC(=O)N1CCN(C(=O)CN(CC)S(=O)(=O)c2cc(C)ccc2OC)CC1	0	0.5	0.68	-2.7	-0.4	-2%	1.0
Cc1c(OCC(=O)N[C@@H](CSCc2ccccc2)C(=O)O)ccc2c3c(c(=O)oc12)CCC3	-4	0.0	0.7	x	x	x	-2.1
Nc1c(Cl)cc(-c2cn(CCC(=O)O)c(-c3ccncc3)n2)cc1Cl	-4	0.8	0.65	-1.9	0.9	x	-0.9
O=C(OCc1cc2ccccc2[nH]c1=O)c1ccncc1	-5	-2.6	0.72	-6.1	-0.3	15%	-4.6
CCCCOc1cc(CC2CNC(=O)N2)ccc1OC (stereo not given)	-13	2.6	0.71	1.1	0.3	x	3.4
Going on with the list:
SMILES	B2AR ag	HNF4A DNA FP	Ecoli growth	LANA-H2A inh	A1 inh	Vif TR-FRET	UCH37 DUB inh
COc1ccc(CCN(Cc2ccc(C(C)C)cc2)S(=O)(=O)c2ccc(S(=O)(=O)N(C)C)cc2)cc1OC	-1	2.2	0.73	-1.4	0.6	x	5.7
COc1ccc(CNC(=O)CNC(c2ccccc2)c2ccccc2)cc1OC	2	3.1	0.67	-9.1	0.4	x	2.2
O=C(O)c1cc2cccc(S(=O)(=O)N3CCCCC3)c2cc1O	4	0.5	0.65	5.7	0.8	x	-76
Cc1cccn2c(=O)c3cc(C(=O)NCC4CCCO4)c(=N)n(Cc4ccc(F)cc4)c3nc12 (stereo not given)	3	6.4	0.69	1.6	0.3	x	i
CCn1c(SCC(=O)Nc2ccc3c(c2)OCO3)nc2c1c(=O)n(C)c(=O)n2C	2	-1.4	0.73	8.9	-0.4	-1%	0.2
Cc1ccc(CNC(=O)C(C)C2Sc3ccccc3NC2=O)cc1 (stereo not given)	0	7.8	0.66	-5.9	0.3	-9%	-0.6
CN(C)S(=O)(=O)c1ccc2oc(SCC(=O)c3c(N)n(C4CC4)c(=O)[nH]c3=O)nc2c1	-6	4.9	0.7	-17	-0.4	-7%	-0.5
CCOC(=O)c1cc(CC)sc1NC(=O)c1ccc([N+](=O)[O-])c(N2CCOCC2)c1	-1	4.7	0.73	x	-0.5	8%	-8.8
CCc1ccc(NC(=O)C2CCN(C(=O)N3CCOc4ccccc43)CC2)cc1	5	2.4	0.77	3.2	0.3	x	2.6
COc1ccc(Br)c(C(=O)OCC(=O)NC2CCCCCC2)c1	-10	-1.1	0.67	2.5	0.7	2%	1.1
CCOC(=O)C1CCCN(S(=O)(=O)c2cc(C(=O)OC)n(C)c2)C1 (stereo not given)	3	3.5	0.72	-5.7	0.2	x	3.8
N[C@@H](Cc1ccccc1)C(=O)N1CCC(C(=O)NCC(=O)Nc2ccc(F)cc2)CC1	-1	0.4	0.65	-1.1	-1.0	4%	3.5
CCn1c(CNC(=O)c2ccccc2F)nnc1SCCOc1ccccc1	-2	-3.6	0.7	-0.6	0.0	3%	4.2
O=C(c1cccc(Br)c1)N1CCN(C(=O)c2cccc(Br)c2)CC1	-1	0.0	0.73	3.2	1.0	x	3.2
COC(=O)C1=C(NC(=O)COc2ccc3ccccc3c2)CCS1	3	0.5	0.72	-1.9	-0.6	x	-110
NNC(=O)Cn1nnc(-c2ccc(C(F)(F)F)cc2)n1	-2	5.4	0.66	-0.1	0.4	0%	1.3
COc1cccc(CN2CCN(C(=O)Nc3ccc([N+](=O)[O-])cc3)CC2)c1	-11	-2.7	0.58	-2.3	0.7	u	6.6
C/C(=N/OC(=O)c1ccc(C)cc1)C(=O)c1ccc(Br)cc1	2	0.1	x	-2.9	-0.1	2%	x
CCCCN(C)C(=O)C1CCC(=O)N(c2cc(OC)c(OC)c(OC)c2)C1c1ccc(OC)cc1 (stereo not given)	7	-1.1	0.69	1.5	0.5	7%	0.9
O=C(NCc1ccccc1)C(c1cccnc1)N(C(=O)c1ccccn1)c1cccc(F)c1 (stereo not given)	3	-2.0	0.65	-2.1	0.1	x	0.5
Cc1ccc(S(=O)(=O)NCCC(=O)N2CCN(S(=O)(=O)c3cccc(F)c3)CC2)cc1C	7	-2.9	0.63	-2.6	0.0	0%	0.3
CCCCSc1nnc2c(n1)[nH]c1ccccc12	1	-5.3	0.7	-0.5	-3.2	2%	3.5
O=[N+]([O-])c1ccc(O)c(/C=N/n2cnc3ccccc32)c1	15	2.9	x	-2.8	0.5	12%	x
CCCOc1ccc(/C=N/NC(=O)C2CCCN2S(=O)(=O)c2ccc(Cl)cc2)cc1 (stereo not given)	8	-4.9	x	-2.9	-0.4	1%	x
CC(=O)CCN1CCOCC1	-1	-0.5	0.64	-2.1	0.2	-3%	2.1
Next structures:
SMILES	B2AR ag	HNF4A DNA FP	Ecoli growth	LANA-H2A inh	A1 inh	Vif TR-FRET	UCH37 DUB inh
CSc1ncc(Cl)c(C(=O)Nc2ccccc2Br)n1	-6	4.6	0.71	-1.5	-0.6	x	2.1
O=C(NCCC1=CCCCC1)Nc1ccc2nsnc2c1	0	-1.3	0.63	7.1	0.7	-3%	-40
Cc1cccc(NC(=O)Cn2c(=O)oc3ccccc32)c1C	0	3.0	0.7	-1.7	0.8	2%	3.2
CC(=O)c1c(N2CCC(C(N)=O)CC2)nc(=S)n(-c2ccccc2)c1C	5	2.1	0.66	-6.4	u	0%	5.0
Nc1cc(=O)[nH]c(SCC(=O)Nc2ccc(S(=O)(=O)N3CCCCC3)cc2)n1	3	0.8	0.65	-1.0	0.1	-2%	0.8
CCN(CC(O)Cn1c2ccccc2c2ccccc21)S(=O)(=O)c1ccc(F)cc1 (stereo not given)	-1	2.8	0.73	3.4	-0.2	u	1.0
COc1cccc2cc(C(=O)OC(C)C(=O)c3ccc(C)cc3)c(=O)oc12 (stereo not given)	-9	1.1	0.69	-0.4	-0.2	x	-4.8
CCc1ccc(Nc2ccc3nonc3c2[N+](=O)[O-])cc1	-5	3.4	0.69	5.9	1.2	x	1.7
CC(=O)c1ccc(N2CCN(C(=S)Nc3cccc(Cl)c3)CC2)cc1	6	5.2	0.73	8.3	0.9	x	-0.3
O=[N+]([O-])c1cccc(CN(CCO)Cc2ccccc2)c1	0	-1.9	0.67	2.6	-1.3	11%	2.4
CCn1c(Cc2ccccc2)nnc1SCC(=O)OC(C)C	8	-7.7	0.69	-2.2	0.1	1%	-0.3
Cc1ccc(S(=O)(=O)N2CCC(C(=O)Nc3ccc(C(C)C)cc3)CC2)cc1	11	-2.5	0.71	-0.8	-0.6	x	3.7
CC(N)C12CC3CC(C1)CC(C(C)N)(C3)C2 (stereo not given)	-4	-0.1	0.74	0.2	0.5	-5%	3.7
CC(C)(C)SCCNC(=O)Nc1ccccc1	-5	1.6	0.7	-2.6	-0.8	x	3.4
N#C/C(=C\N1CCOCC1)S(=O)(=O)c1ccc(Cl)cc1	14	-1.3	0.65	-1.9	0.4	-4%	0.9
CC1CCCCC1NC(=O)CN1CCC(O)(c2ccc(F)cc2)CC1 (stereo not given)	14	-3.1	0.67	-2.9	0.8	u	0.6
CCOC(=O)c1sc(NC(=O)COC(=O)CNC(=O)C2CCCCC2)c(C(=O)OCC)c1C	1	1.6	0.68	10.0	-0.3	-14%	-0.5
O=C(Nc1ccccc1C(=O)NC1CC1)c1ccccc1F	3	-1.3	0.72	-0.3	-0.8	x	4.2
Cc1noc(C)c1CSCC(=O)Nc1nc2c(F)cc(F)cc2s1	12	3.6	0.63	2.4	0.2	18%	2.7
CCN(CC)C(=O)C1CC(=O)OC12CCCCC2 (stereo not given)	4	-1.7	0.68	0.1	0.3	10%	0.5
Cc1cccc(N2CCN(C(=O)Cn3ccc4ccccc4c3=O)CC2)c1C	10	-1.7	0.7	1.4	0.7	8%	0.1

Screening results: PubChem BioAssay, several laboratories
